Tb PFK block: inhibitors of T. brucei phosphofructokinase. 330,000 tested, 0.17% active. AID 485367. O15648. T. brucei PFK, ADP-Glo luminescence. Potency, µM (titrated, usually from 57.5 µM), for the others: at the highest dose activity, negative = inhibition, usual class: inhibitors;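 further: potency means the concentration at half of the fitted maximal effect; 0% = uninhibited 1x PFK enzyme wells and -100% = no-enzyme wells; nearly all actives have a fitted effect of over 60% in size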
Target sequence (O15648 whole entry, looked up): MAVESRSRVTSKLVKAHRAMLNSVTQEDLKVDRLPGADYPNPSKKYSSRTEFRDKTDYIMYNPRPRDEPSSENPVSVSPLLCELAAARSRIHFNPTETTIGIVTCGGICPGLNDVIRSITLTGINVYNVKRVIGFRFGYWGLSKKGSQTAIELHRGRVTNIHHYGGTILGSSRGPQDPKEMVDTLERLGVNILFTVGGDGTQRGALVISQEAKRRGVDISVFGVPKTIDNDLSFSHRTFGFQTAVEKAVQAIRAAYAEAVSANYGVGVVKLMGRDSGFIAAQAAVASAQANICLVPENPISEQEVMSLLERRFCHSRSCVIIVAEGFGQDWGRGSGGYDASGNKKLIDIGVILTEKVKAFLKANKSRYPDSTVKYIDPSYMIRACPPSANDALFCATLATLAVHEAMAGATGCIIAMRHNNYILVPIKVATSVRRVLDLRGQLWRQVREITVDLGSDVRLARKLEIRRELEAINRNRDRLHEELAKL
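PFK 1.25 nM, F6P 0.5 mM, ATP 0.1 mM, 0.1 M TEA pH 8.0, 5 mM MgCl2, 0.01% Tween20, 0.1% BSA; 45 min RT. ADP-Glo readout. qHTS titration up to 57 uM; curves fitted, compounds curve-classed.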
Giardia killer: kills Giardia lamblia. activity change, % at 7.66 µM, hits read low. AID 540267. 340,000 tested, 0.15% active. Giardia lamblia trophozoite viability; in the data active means activity change below about -80%; inconclusive means between about -30% and that limit;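 further: parasites exposed to compound for two days anaerobically before the ATP read; on the % scale 0 is the no-effect control and ±100 the full control effect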
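Luminescent ATP signal served as the viability read-out, measured 15-30 min after adding ATP detection reagent to trophozoites that had been incubated with compounds for 48 hrs at 37 deg C anaerobically at 100 cells/well.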
NPC1 prom act: activates the NPC1 promoter. 320,000 tested, 2.4% active. Huh7 NPC1 promoter luciferase reporter, 24 h. AID 485313. Potency, µM (titrated, usually from 9.22 µM), for the others: at the highest dose activation, hits mostly activators;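 further: potency means the concentration at half of the fitted maximal effect; % of control where 0% means no effect; nearly all actives have a fitted effect of over 60% in size; reporter is driven by a mutant NPC1 promoter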
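Luciferase expression driven by the NPC1 promoter was measured in stably transfected Huh7 cells after a 24 h compound incubation, using a luciferase reagent and a luminescence read.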
uPA surface inh: cell surface uPA generation inhibition | 330,000 tested, 0.31% active | Potency, µM (series often up to 38.3 µM), inactives show top-dose activity change, negative = inhibition, hits mostly inhibitors | cell surface uPA generation assay, qHTS | AID 540303; active means well fitted inhibition curve with a large enough effect; inconclusive means small, poorly fitted or top-dose-only effect; inactive means no such curve, though single readings can be large or run the other way; tested in mouse RAW 264.7 cells; further: potency means the concentration at half of the fitted maximal effect; on the % scale 0 is the no-effect control and ±100 the full control effect; nearly all actives have a fitted effect of over 55% in size
FBPA coupling cs: inhibits coupling enzyme system, counter-screen for aldolase hits | activity change, negative = inhibition, % at 58.2 µM, hits read low | coupling enzyme system counterscreen, AmpLite Red fluorescence | 290,000 tested, 0.67% active | AID 2472; in the data active means activity change below about -30%; further: on the % scale 0 is the no-effect control and ±100 the full control effect
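First, compound is pin-transferred into glyceraldehyde-3-phosphate coupling-enzyme reagent at 57.5 uM final and held 10 min at RT. Next, substrate, coupling system and AmpLite Red are added. After 20 min RT, fluorescence (525/598 nm) is read.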
ELG1 genotoxic: genotoxicity induction in ELG1-luciferase HEK293T cells; HEK293T ELG1-luciferase reporter, luminescence, 16 h; 330,000 tested, 1.3% active; Potency, µM (highest dose often 46 µM), for inactives: at the top dose activity change, positive = activation, hits mostly activators; further: potency means the concentration at half of the fitted maximal effect; % of control where 0% means no effect; nearly all actives have a fitted effect of over 60% in size
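Genotoxicity was scored as increased ELG1-luciferase reporter signal, measured by ONE-Glo luminescence (30 min, room temperature). Compound or vehicle exposure of the HEK293T reporter cells lasted 16 hr at 37°C.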
The depositor's hits bear a star; & = joins results of further samples; [ ] = another dose, or the depositor's remark. Unless noted, the call rests on the fitted dose curve; in most records, active means well fitted curve in the direction sought with a large enough effect; inconclusive means small, poorly fitted or top-dose-only effect, or another doubt; inactive means no such curve, though single readings can be large; an effect the other way counts as inactive or inconclusive. This is a subset; rates above refer to the full screens.

What do the screens show for `C[C@]12CCC3C(CC[C@H]4C[C@@H](O)CC[C@]34C)[C@H]1C=CC2=O` (some centres not stated)?
Tb PFK block: 2%; Giardia killer: -17; uPA surface inh: -7%; ELG1 genotoxic: 0%

What do the screens show for `CNCC[C@@H](Oc1ccc(C(F)(F)F)cc1)c1ccccc1`?
Tb PFK block: 0%; Giardia killer: 1; NPC1 prom act: -7%; uPA surface inh: inconclusive; ELG1 genotoxic: 0%

Results for CC(C)Nc1nc(Cl)nc(NC(C)C)n1 ?
Tb PFK block: -3%; Giardia killer: -5; NPC1 prom act: -4%; uPA surface inh: -24%; FBPA coupling cs: -1&3; ELG1 genotoxic: 1%

What do the screens show for `Clc1ccc(CSC(Cn2ccnc2)c2ccc(Cl)cc2Cl)cc1` (configuration not stated)?
Tb PFK block: -7%; Giardia killer: -20; NPC1 prom act: -4%; uPA surface inh: -11%; FBPA coupling cs: -2&-4; ELG1 genotoxic: 14%

How did CC12CCC(=O)C=C1CCC1C2CCC2(C)C(O)CCC12 (configuration not stated) do in these assays?
Tb PFK block: 2%; Giardia killer: 5; NPC1 prom act: -2%; uPA surface inh: 5%; FBPA coupling cs: 4; ELG1 genotoxic: 0%

How did CC(=O)[C@H]1CC[C@H]2[C@@H]3CCC4=CC(=O)CC[C@]4(C)[C@H]3CC[C@]12C do in these assays?
Tb PFK block: -3%&-1%&4%; Giardia killer: -1&8; NPC1 prom act: -23%[46.1 µM]; uPA surface inh: 21%&-7%; FBPA coupling cs: 3&5&6; ELG1 genotoxic: 1%&-5%

How did [Cl][Pt+2][Cl].[NH-]C1CCCCC1[NH-] (configuration not stated) do in these assays?
Tb PFK block: -19%; Giardia killer: 2; NPC1 prom act: -10%; ELG1 genotoxic: -4%

What do the screens show for `CNCCC(Oc1ccc(C(F)(F)F)cc1)c1ccccc1` (configuration not stated)?
Tb PFK block: -7%; Giardia killer: 14; NPC1 prom act: -30%[inhibitor][46.1 µM]; uPA surface inh: -17%; FBPA coupling cs: 1&5&5; ELG1 genotoxic: 5%

How did CCOC(=O)c1cncn1C(C)c1ccccc1 (configuration not stated) do in these assays?
Tb PFK block: -5%; Giardia killer: -9; NPC1 prom act: -3%; uPA surface inh: 15%; FBPA coupling cs: 1; ELG1 genotoxic: 4%

Part of the list above in order of molar mass, low to high:
What do the screens show for `C[C@]12CCC3C(CC[C@H]4C[C@@H](O)CC[C@]34C)[C@H]1C=CC2=O` (some centres not stated)?
Tb PFK block: 2%; Giardia killer: -17; uPA surface inh: -7%; ELG1 genotoxic: 0%

What do the screens show for `CNCCC(Oc1ccc(C(F)(F)F)cc1)c1ccccc1` (configuration not stated)?
Tb PFK block: -7%; Giardia killer: 14; NPC1 prom act: -30%[inhibitor][46.1 µM]; uPA surface inh: -17%; FBPA coupling cs: 1&5&5; ELG1 genotoxic: 5%

How did CC(=O)[C@H]1CC[C@H]2[C@@H]3CCC4=CC(=O)CC[C@]4(C)[C@H]3CC[C@]12C do in these assays?
Tb PFK block: -3%&-1%&4%; Giardia killer: -1&8; NPC1 prom act: -23%[46.1 µM]; uPA surface inh: 21%&-7%; FBPA coupling cs: 3&5&6; ELG1 genotoxic: 1%&-5%

What do the screens show for `Clc1ccc(CSC(Cn2ccnc2)c2ccc(Cl)cc2Cl)cc1` (configuration not stated)?
Tb PFK block: -7%; Giardia killer: -20; NPC1 prom act: -4%; uPA surface inh: -11%; FBPA coupling cs: -2&-4; ELG1 genotoxic: 14%

Compounds shown so far that contain fluorine (two):
What do the screens show for `CNCC[C@@H](Oc1ccc(C(F)(F)F)cc1)c1ccccc1`?
Tb PFK block: 0%; Giardia killer: 1; NPC1 prom act: -7%; uPA surface inh: inconclusive; ELG1 genotoxic: 0%

What do the screens show for `CNCCC(Oc1ccc(C(F)(F)F)cc1)c1ccccc1` (configuration not stated)?
Tb PFK block: -7%; Giardia killer: 14; NPC1 prom act: -30%[inhibitor][46.1 µM]; uPA surface inh: -17%; FBPA coupling cs: 1&5&5; ELG1 genotoxic: 5%
